Sa ugtP lethal: growth inhibition of ugtP-null S. aureus, primary screen, RN4220 ugtP deletion, OD600; 16 h; some inactives read as strong as hits; growth inhibition, % (test concentration not listed); actives 0.54% (n = 330,000); AID 1259309, 2017;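 active = z-score under -3 and OD600 up to 0.15 on both plates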;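 also: plate controls were untreated wells for no effect and antibiotic for full effect; wells of about 80 µL received 100 nL stock; the first replicate is given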
Mtb hypoxia rep: PubChem AID 1159583 | actives 0.1% (n = 300,000) | fluorescence inhibition, % (test concentration not listed) | M. tuberculosis hypoxia-regulated fluorescent reporter, fluorescence;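 active = 35 to 45% if threefold the growth effect, above 45% if 1.5-fold the growth effect; inactive = the rest, general growth blockers included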;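 also: wells of about 50 µL received 100 nL stock; 0% = vehicle wells and 100% = reference inhibitor wells; whole bacteria with a GFP reporter of the hypoxia response; strong numbers were not always called active; many hits fall short of the cut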
Sa RN4220 lethal: growth inhibition of S. aureus RN4220, primary screen, OD600; inhibition, % (concentration not given with the values); actives 0.33% (n = 330,000); 16 h;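 active = z-score of -3 or lower and OD600 up to 0.18 on both plates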;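 also: plate controls were untreated cells for no effect and reference antibiotic for full effect; stock transfer was 100 nL into about 80 µL; one replicate is shown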
BJeLR viability: MLPCN primary cell-based screen for lethality selective to Ras in HRASV12 cells | inhibition, % (no concentration beside the values) | actives 0.17% (n = 300,000) | BJeLR (HRASV12) viability, CellTiter-Glo ATP luminescence, 48 h; reference of the scale not given here;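 active = replicate mean above 50%; inconclusive = above 50% but judged a plate artefact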;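 also: 50 nL library stock added to about 25 µL; numbers are from one replicate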
Bead autofluor: flagged as autofluorescent in microsphere protease counterscreen; compound autofluorescence counterscreen, microsphere flow cytometry; stronger effect = higher value; fluorescence intensity (no concentration beside the values); actives 3.1% (n = 360,000); AID 624483;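 active = at least 3 SD above the mean of all compounds, about 16000 in these data; inconclusive = too few beads counted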;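 also: 100 nL of 1 mM stock went into each well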
PrP 5UTR inh: inhibition of PrP 5' UTR reporter expression; cell-based PrP 5' UTR mRNA reporter, plate reader; inhibition, % (test concentration not listed); actives 0.35% (n = 340,000); AID 488862, 2010;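 active = every replicate at 50% or more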;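 also: 0 = median of the neutral control wells; tested in H4 reporter cells; numbers are from one replicate; inactives centre near -14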
Mtb hypoxia rep growth: also measured in Mtb hypoxia rep; calls as there; growth inhibition, %; measured here: M. tuberculosis growth (absorbance);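 0% = vehicle and 100% = reference antibiotic; read after six days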
The depositor's hits bear a star; ? = inconclusive; . = no result given.

nr	SMILES	Mtb hypoxia rep	PrP 5UTR inh	Bead autofluor	BJeLR viability	Sa RN4220 lethal	Sa ugtP lethal	Mtb hypoxia rep growth
1	O=C(C[n+]1cccc(Br)c1)c1ccc(-c2ccccc2)cc1	6	-11	2972	3	-1.2	2	1
2	O=C1C(Cl)=C(O)C2(Cl)C(Cl)=C(Cl)C12Cl (stereo unspecified)	19	-11	3714	.	1.3	3	11
3	COc1cccc(Nc2nc(NCCO)nc(N3CCCC3)n2)c1	1	-13	3941	-3	7.2	5	0
4	Cc1cccc(C(=O)NCC(=O)NC(C)CCc2ccccc2)c1 (stereo unspecified)	18	-23	6831	-8	-2.2	6	9
5	Cc1csc(NC(=O)Nc2ccccc2[N+](=O)[O-])n1	-5	-62	4253	6	1.5	-8	-5
6	S=c1[nH]nc(-c2cc(-c3ccsc3)n[nH]2)n1-c1ccccc1	1	.	5689	-8	-5.2	-15	6
7	CSc1ccccc1NC(=O)c1ccccn1	16	-23	4509	10	7.1	5	2
8	O=C(NN=Cc1ccc(O)c(O)c1)C1CC1	6	.	.	.	2.1	0	-4
9	COc1ccc([N+](=O)[O-])cc1N(CC(=O)NC(C(C)C)C(C)C)S(C)(=O)=O	6	-10	4559	-10	2.0	2	-10
10	COc1ccc(/C=C/C(=O)NC(=S)Nc2ccccc2)cc1OC	2	-19	3776	8	2.2	3	4
11	Cc1c(CCC(C)C)c(-n2ccnc2C)n2c(nc3ccccc32)c1C#N	2	1	2176	-3	6.8	4	8
12	COC(=O)c1coc(-c2ccc(C)cc2)c1C(=O)OC	.	-52	4359	-3	1.9	14	.
13	Fc1ccc(CN2CCSCC2)cc1F	8	-16	3424	6	4.9	10	9
14	C#CCO[C@@H]1C[C@H](n2cnc3c(NC(=O)c4ccccc4)ncnc32)O[C@@H]1CO	.	-35	4090	8	.	.	.
15	CCOC(=O)C1=C(C)NC(=O)NC1c1ccc(OC(=O)c2ccco2)c(OC)c1 (stereo unspecified)	6	-3	7751	6	4.2	6	7
16	Cc1nc(NC(=O)COC(=O)c2ccc(CO)cc2)c(Cl)cc1Cl	11	-7	4122	.	0.6	0	14
17	CC(C)(C)C1CCC(=O)C(C2(O)C(=O)Nc3ccccc32)C1 (stereo unspecified)	9	-22	5161	-3	8.6	-4	4
18	Cc1ccc(Cn2c(N3CCN(C)CC3)nc3c2c(=O)[nH]c(=O)n3C)cc1	16	-13	3270	1	3.9	3	7
19	Cc1cc(NC(=O)CCC(=O)N(CC(=O)NCC2CCCO2)c2ccc(Cl)c(Cl)c2)no1 (stereo unspecified)	0	-14	5672	3	1.4	12	10
20	c1ccc(C(OCCN2CCNCC2)c2ccccc2)cc1	.	-9	4262	-6	-1.8	6	.
21	CC(=O)c1cccc(NC(=O)c2ccc(NS(=O)(=O)c3c(C)noc3C)cc2)c1	-11	-19	3950	-3	-2.4	-5	0
22	Cc1ccccc1C(=O)NCC(=O)NCC1(N2CCOCC2)CCCCC1	2	-18	?	1	3.3	-1	2
23	COc1cc(C=NNC(=O)CNC(=O)c2cccs2)ccc1O	4	.	.	.	2.1	8	0
24	Cc1cc(NC(=O)c2ccno2)no1	4	-23	4236	-13	3.5	12	-6
25	CCN(CC)CCNC(=O)C(Oc1ccccc1)Oc1ccccc1	15	-22	3619	-5	1.9	2	9
26	CC(/C=N/Nc1ncc(C)c(=O)[nH]1)=C\c1ccccc1	.	-29	2121	-18	.	.	.
27	O=C(NNS(=O)(=O)c1ccccc1)C1CCN(S(=O)(=O)c2ccccc2)CC1	11	-33	3763	1	7.3	-2	16
28	O=C(COc1ccc([N+](=O)[O-])cc1)NC(=O)NC1CCS(=O)(=O)C1 (stereo unspecified)	7	0	5242	.	1.3	-1	4
29	CN(/C=C/C(=C/C=[N+](C)c1ccccc1)OCCCS(=O)(=O)[O-])c1ccccc1	13	-5	2704	-2	3.4	-4	1
30	CCOC(=O)C(C)n1cnc2c(nnn2Cc2ccc(Cl)cc2)c1=O (stereo unspecified)	4	.	7834	-16	-1.9	8	2
31	CCOC(=O)c1cccc(NC(=O)C2CCN(c3ncnc4c3nc3n4CCCCC3)CC2)c1	5	-1	5923	9	-2.0	-1	4
32	CCOc1ccccc1NC(=O)C1C2C=CC(C2)C1C(=O)O (stereo unspecified)	7	-7	25672*	0	4.2	1	5
33	COc1ccc(CCNS(=O)(=O)c2ccc3c(c2)OCCO3)cc1	8	-15	4164	-7	-0.5	8	-3
34	N#Cc1ccccc1OCC(=O)NNC(=O)CNC(=O)c1cccc(Br)c1	-2	-1	4616	.	-2.9	-4	-4
35	O=C(Cc1ccc(NC(=O)C2CCCN(C(=O)C3CC3)C2)cc1)Nc1cccc(C(=O)N2CCCCC2)c1 (stereo unspecified)	-8	5	3629	.	2.3	2	2
36	COc1ccc(NC(=O)CCc2nc3ccccc3s2)c(OC)c1	-5	-10	3389	-1	6.3	6	-2
37	CCOc1cccc(C2/C(=C(/O)c3ccc4c(c3)CC(C)O4)C(=O)C(=O)N2Cc2cccnc2)c1 (stereo unspecified)	1	-2	5248	7	4.1	-1	5
38	CC1CCN(c2nnc(-c3cccs3)c3ccccc23)CC1	7	-29	2306	0	1.7	1	10
39	CCOC(=O)c1ccc(NC(=O)Nc2ccc(Cl)cn2)cc1	6	-27	2524	10	3.1	7	4
40	N#C/C(=C\c1cn(CCOc2ccccc2)c2ccccc12)C(=O)NCC1CCCO1 (stereo unspecified)	9	-26	10102	-11	4.5	-19	3
41	COc1ccc(NC(=O)c2cccc(C(=O)Nc3ccc(OC)cc3)n2)cc1	-3	.	.	3	5.0	6	2
42	COc1ccccc1-n1c(C)nc2cc(C(=O)O)ccc21	0	-22	5922	5	3.2	1	-3
43	CCCCOc1ccc(C(=O)NCC(=O)NCCOc2ccccc2)cc1	4	-14	?	-2	-1.0	-5	6
44	Cc1cccc(C)c1NC(=O)COc1cccc(C=NNC(=O)C(=O)NCc2ccccc2)c1	14	.	.	.	5.3	-7	6
45	OCCN=C(c1ccccc1)C12CN3CN(CN(C3)C1)C2	.	-8	2402	-6	1.3	2	.
46	CCc1noc(C)c1C(=O)N1CCSC1=Nc1cccc(Cl)c1C	.	-25	5663	1	.	.	.
47	COCCNC(=O)C(=O)N/N=C(\C)CC(=O)Nc1cccc(C(F)(F)F)c1	.	-23	3536	4	.	.	.
48	Cc1ccc(C)c(NCC(=O)c2ccc(Cl)cc2)c1	2	-7	3188	-2	2.8	1	-2
49	O=C(NC(N1CCOCC1)C(Cl)(Cl)Cl)c1ccc(F)cc1 (stereo unspecified)	8	-38	4417	-4	3.6	5	4
50	Cc1cc(C)c(C(=O)C(C)OC(=O)c2ccccn2)cc1C (stereo unspecified)	7	-21	6248	-5	3.5	7	-7

Next section:
nr	SMILES	Mtb hypoxia rep	PrP 5UTR inh	Bead autofluor	BJeLR viability	Sa RN4220 lethal	Sa ugtP lethal	Mtb hypoxia rep growth
51	O=C(NCCSCc1ccco1)Nc1ccccc1	4	-22	10154	-11	6.9	5	0
52	COc1ccc(N(CC(=O)N2CCc3ccccc32)S(=O)(=O)c2c(C)nn(C)c2C)cc1	-1	-8	5998	0	6.0	8	-2
53	Cc1ccc(S(=O)(=O)Nc2nc(C)cc(NCCN)n2)cc1	12	0	9154	1	0.9	12	7
54	CCOc1cc(/C=N/n2cnnc2)ccc1O	.	-13	7551	0	.	.	.
55	c1ccc(-n2cnc3ccccc32)cc1	6	-10	4107	-1	5.3	0	5
56	CN1Cc2cccnc2N(C)Cc2cc(Cl)ccc21	10	-16	9113	2	4.4	18	8
57	COc1ccccc1C(=O)NCC(=O)n1nc(C)cc1C	.	-15	4405	-6	2.6	6	.
58	CCCN(CC(=O)Nc1ccccc1OC)C(=O)c1cc2ccccc2o1	5	-29	4398	4	1.4	2	5
59	N#Cc1ccc(OCC(=O)OCC(=O)c2ccc[nH]2)cc1	1	-11	6100	.	2.2	0	-8
60	CCc1nc2c(c(=O)[nH]1)C(CC)(CC)Cc1ccccc1-2	7	-9	.	-1	5.1	0	1
61	COc1cccc(C(=O)c2c[nH]c(C(=O)NCCCN3CCOCC3)c2)c1	4	-21	4161	-1	3.5	6	7
62	O=C(CSc1ncnc2c1oc1ccccc12)N1CCN(c2ccccc2)CC1	19	-17	10118	0	1.9	-13	7
63	CCOC(=O)C1(c2ccccc2)CCN(Cc2cccc(C(=O)O)c2)CC1	14	-4	8009	-9	2.9	2	4
64	COc1ccc(/C=C2\CCn3c2nc2ccccc2c3=O)cc1OC	4	-42	3037	-6	2.1	5	0
65	CCC(NC(=O)c1ccccc1NC(=O)c1ccccc1)C(=O)OC (stereo unspecified)	7	-11	2488	-1	1.7	5	7
66	CC(=O)Nc1c(C)nn(-c2ccc([N+](=O)[O-])cc2)c1C	2	-19	4211	-19	2.8	3	7
67	COc1ccc(C=NNC(=O)CN(Cc2ccccc2)S(=O)(=O)c2ccc3c(c2)OCCO3)cc1	2	.	.	.	1.6	-9	1
68	COc1ccc(C2CC(c3ccc([N+](=O)[O-])cc3)=NN2C(=O)c2ccccc2)cc1OC (stereo unspecified)	-5	-11	2499	0	-0.2	-10	-5
69	CCOc1ccc(C2CC(c3cccc(C)c3)n3nc(N)nc3N2)cc1 (stereo unspecified)	.	5	6047	-3	3.1	-3	.

By substructure, those above with an aryl methoxy group.
nr	SMILES	Mtb hypoxia rep	PrP 5UTR inh	Bead autofluor	BJeLR viability	Sa RN4220 lethal	Sa ugtP lethal	Mtb hypoxia rep growth
3	COc1cccc(Nc2nc(NCCO)nc(N3CCCC3)n2)c1	1	-13	3941	-3	7.2	5	0
9	COc1ccc([N+](=O)[O-])cc1N(CC(=O)NC(C(C)C)C(C)C)S(C)(=O)=O	6	-10	4559	-10	2.0	2	-10
10	COc1ccc(/C=C/C(=O)NC(=S)Nc2ccccc2)cc1OC	2	-19	3776	8	2.2	3	4
15	CCOC(=O)C1=C(C)NC(=O)NC1c1ccc(OC(=O)c2ccco2)c(OC)c1 (stereo unspecified)	6	-3	7751	6	4.2	6	7
23	COc1cc(C=NNC(=O)CNC(=O)c2cccs2)ccc1O	4	.	.	.	2.1	8	0
33	COc1ccc(CCNS(=O)(=O)c2ccc3c(c2)OCCO3)cc1	8	-15	4164	-7	-0.5	8	-3
36	COc1ccc(NC(=O)CCc2nc3ccccc3s2)c(OC)c1	-5	-10	3389	-1	6.3	6	-2
41	COc1ccc(NC(=O)c2cccc(C(=O)Nc3ccc(OC)cc3)n2)cc1	-3	.	.	3	5.0	6	2
42	COc1ccccc1-n1c(C)nc2cc(C(=O)O)ccc21	0	-22	5922	5	3.2	1	-3
52	COc1ccc(N(CC(=O)N2CCc3ccccc32)S(=O)(=O)c2c(C)nn(C)c2C)cc1	-1	-8	5998	0	6.0	8	-2
57	COc1ccccc1C(=O)NCC(=O)n1nc(C)cc1C	.	-15	4405	-6	2.6	6	.
58	CCCN(CC(=O)Nc1ccccc1OC)C(=O)c1cc2ccccc2o1	5	-29	4398	4	1.4	2	5
61	COc1cccc(C(=O)c2c[nH]c(C(=O)NCCCN3CCOCC3)c2)c1	4	-21	4161	-1	3.5	6	7
64	COc1ccc(/C=C2\CCn3c2nc2ccccc2c3=O)cc1OC	4	-42	3037	-6	2.1	5	0
67	COc1ccc(C=NNC(=O)CN(Cc2ccccc2)S(=O)(=O)c2ccc3c(c2)OCCO3)cc1	2	.	.	.	1.6	-9	1
68	COc1ccc(C2CC(c3ccc([N+](=O)[O-])cc3)=NN2C(=O)c2ccccc2)cc1OC (stereo unspecified)	-5	-11	2499	0	-0.2	-10	-5
